Screening data deposited in PubChem BioAssay by ICCB-Longwood Screening Facility, Harvard Medical School.
HCMV NEC inh – inhibitors of HCMV UL50-UL53 interaction, biochemical, HTRF; normalized percent inhibition; 0.15% of 190,000 active; HCMV UL50-UL53 nuclear egress complex (human cytomegalovirus); inhibition, % (concentration not given with the values); AID 1918969, 2023;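 active means both replicates at 50% or more, plus weaker picks with an unusually low signal ratio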;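 further: stock transfer was 100 nL into about 20 µL; 0% = negative control wells and 100% = wells with untagged competitor protein; inactives centre near -12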
GIV Gai3 FP – inhibitors of GIV peptide binding to Galpha-i3, primary screen, biochemical, fluorescence polarization, FITC-GIV GBA peptide, rat Galphai3. Guanine nucleotide-binding protein G(i) subunit alpha-3 (Rattus norvegicus), P08753. 90 min; hits give low values; scaled: aluminum fluoride 0%, vehicle 100%. percent of control (FP), % (no concentration beside the values). 0.42% of 210,000 active. AID 1224905, 2016;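 active means replicate mean at 85% of control or lower, very high polarization wells dropped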;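 further: wells of about 15 µL received 100 nL stock; the first replicate is given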
Target sequence (P08753 whole entry, looked up): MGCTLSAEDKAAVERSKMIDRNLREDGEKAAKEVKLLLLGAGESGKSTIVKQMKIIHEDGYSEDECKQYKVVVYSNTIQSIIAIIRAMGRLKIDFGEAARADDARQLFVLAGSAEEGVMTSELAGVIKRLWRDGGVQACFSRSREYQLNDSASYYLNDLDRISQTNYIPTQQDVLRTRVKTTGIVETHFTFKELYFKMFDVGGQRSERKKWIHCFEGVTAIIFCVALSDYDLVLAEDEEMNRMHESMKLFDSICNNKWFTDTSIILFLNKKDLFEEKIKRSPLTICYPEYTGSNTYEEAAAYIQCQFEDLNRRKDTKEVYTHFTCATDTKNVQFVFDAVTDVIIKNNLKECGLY
Sa growth inh – S. aureus growth inhibition at 42 and 30 °C, primary screen, LtaS inhibitor project, RN4220, two temperatures. AID 720641, 2013. 0.53% of 170,000 active. OD600, 20 h, 42 °C; hits give low values. relative growth, % (concentration not given with the values);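 active means growth at 42 °C up to 50% and 20 or more points under that at 30 °C, or under 10% at both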;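 further: 300 nL library stock went into each well; scaled to the means of positive and negative controls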
Sa growth inh second temp – also measured in Sa growth inh; calls as there; relative growth, %; measured here: growth at 30 °C;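 optical density after 20 h as mean of two plates; 100% = untreated growth and lower means inhibition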
An asterisk follows results filed as active; / = not tested or not shown; & = joins results of further samples.

SMILES | HCMV NEC inh | GIV Gai3 FP | Sa growth inh | Sa growth inh second temp
CSc1nc2[nH]ncc2c(=O)[nH]1 | -7.5 | 110.5 | 98.9 | 88.4
O=C(CCCc1ccccc1)Nc1scc2c(=O)oc3ccccc3c12 | -1.2 | / | 82.5 | 85.1
CC1CCN(CC(=O)Nc2ccc3c(c2)OCO3)CC1 | -30.8 | / | 75.5 | 91.5
O=C(CSc1nc(-c2ccco2)nc2cc(=O)[nH]n12)Nc1ccccc1F | / | 95.8 | 68.8 | 76.5
O=C(CCn1cnc2onc(-c3cc(F)cc(F)c3)c2c1=O)NCc1cccc(Br)c1 | -6.4 | 107.3 | / | /
Cc1cc2c(cc1S(=O)(=O)N1CCCC(C(=O)NC3CC3)C1)OC(C)C(=O)N2 (configuration not stated) | -14.2 | 101.0 | / | /
CCN(CC)S(=O)(=O)c1ccc(-c2nc(C#N)c(N3CCOCC3)o2)cc1 | -29.6 | 101.2 | / | /
Oc1cccc(/C=N/N=C/c2cccc(O)c2O)c1O | -67.6 | 95.5 | 79.7 | 55.9
CCn1c(CN2CCOCC2)nc2cc(NC(=O)c3cc(OC)c(OC)c(OC)c3)ccc21 | -15.5 | 101.1 | 103.6 | 90.5
CC(C)n1c(SCCC(=O)O)nc2ccccc21 | -9.9 | 104.4 | 80.3 | 101.6
O=C(NCCc1c[nH]c2ccccc12)C1CCN(c2nnc(N3CCCCC3=O)s2)CC1 | -14.8 | 98.7 | / | /
COc1ccccc1N(CCC#N)C(=O)c1cncc(Br)c1 | -32.7 | / | 119.8 | 87.2
CN1CCCN(C(=O)c2ccc(F)c(S(=O)(=O)N3CCOCC3)c2)c2nc3ccccc3nc21 | -10.7 | / | 76.5 | 94.8
CCC(C)N(C(=O)c1cc(Cl)ccc1OC)C(C)CC (configuration not stated) | -13.2 | 102.4 | 107.1 | 97.6
O=C(COc1ccccc1)N1CCN=C1c1ccccc1 | / | 103.6 | 105.1 | 83.0
Cc1ccc(-c2ccc(CCC(=O)O)n2-c2ccc(C(C)C)cc2)cc1 | -31.8 | 102.9 | 87.5 | 89.3
Cc1cccc(NC(=O)C(=O)NCC(c2cccnc2)N2CCc3ccccc32)c1C (configuration not stated) | -12.2 | 100.5 | 92.2 | 91.8
O=C(NCc1ccc(Cl)cc1)c1nnc(C(=O)Nc2ccc(F)cc2)s1 | -7.3 | 101.5 | / | /
Cn1c(=NC(=O)c2ccc(S(=O)(=O)N3CCCc4ccccc43)cc2)sc2cc(F)ccc21 | -10.8 | 102.0 | 102.2 | 96.9
COc1cccc(CCNC(=O)c2cnc3sc(N4CCOCC4)nn3c2=O)c1 | 19.7 | 99.5 | 90.8 | 104.8
Cc1[nH]n(-c2ccccc2)c(=O)c1C1=NCCCCC1 | -36.1 | / | 105.0 | 95.4
CCOC(=O)c1cc(-c2ccccc2)n(-c2cccc(C(=O)Nc3cccc(SC)c3)c2)c1C | / | 101.9 | 103.8 | 96.2
COc1ccc(-c2cc(C(F)(F)F)c(C#N)c(SCC(=O)Nc3ccccc3F)n2)cc1 | -33.3 | 104.8 | 97.8 | 97.1
COc1cc(C2C(C(=O)Nc3ccccn3)=C(C)NC3=C2C(=O)CCC3)ccc1OCc1ccccc1 (configuration not stated) | -22.5 | 102.4 | / | /
CCCc1ccc(Oc2ccc(NC(=O)C3CC3C(=O)O)cn2)c(OC)c1 (configuration not stated) | 20.2 | 106.2 | 93.8 | 99.3
COc1ccc(-c2noc(-c3cccn4c(=O)c5ccccc5nc34)n2)cc1OC | -8.2 | 117.7 | / | /
CC1CCCC(NC(=O)CCn2c(=O)oc3ccccc32)C1C (configuration not stated) | 10.2 | 101.8 | 96.8 | 93.8
CN1CCN(CC(O)c2ccccc2)CC1 (configuration not stated) | -16.0 | 101.8 | 113.0 | 87.8
O=C(CCN1c2ccccc2Sc2ccccc21)OC1CCOC1=O (configuration not stated) | -28.0 | / | 111.2 | 97.9
CCO/C=C1/C(=O)N(c2ccc(Cl)cn2)C(=O)c2ccccc21 | -21.6 | / | 107.1 | 94.7
CCCCc1nnc(NC(=O)C2CC(=O)N(CCc3c[nH]c4ccc(OC)cc34)C2)s1 (configuration not stated) | -16.8 | 103.0 | / | /
O=S(=O)(Nc1ncnc2sccc12)c1cccc(F)c1 | -15.3 | / | 95.2 | 71.0
CCOc1ccccc1C(=O)Nc1cccc(-c2nc3ccccc3s2)c1 | 0.6 | 103.1 | 98.7 | 73.7
COC(=O)c1cnc(Sc2ccccn2)nc1C(F)(F)F | -24.4 | 101.9 | 82.2 | 82.1
Cc1ccc(Cl)cc1NC(=O)CCS(=O)(=O)c1ccc(Br)s1 | -5.9 | 106.2 | 99.5 | 88.6
Cc1ccccc1OCC(=O)NC(c1ccccc1)c1c(O)ccc2ccccc12 (configuration not stated) | / | 107.1 | 89.2 | 84.0
Cc1ccc2nc(CSc3nnc(NC(=O)c4cccc(Br)c4)s3)cc(=O)n2c1 | / | 101.9 | 75.6 | 88.6
O=c1c2c3c(sc2nnn1Cc1ccc(Br)cc1)CCCC3 | -23.9 | 101.6 | 109.8 | 84.3
O=C(CC(c1ccccc1)c1cc(Br)ccc1O)N1CCCC1 (configuration not stated) | -7.8 | 102.5 | 94.1 | 80.1
CC1CCN(c2nc(N3CCC(C)CC3)nc(N3CCC(C)CC3)n2)CC1 | -12.6 | / | 97.5 | 86.1
Cn1c(C(=O)NCCCN2CCC(Cc3ccccc3)CC2)cc2c(=O)n(C)c3ccccc3c21 | -2.1 | 100.0 | / | /
Cn1ccc(NC(=O)Nc2ccccc2)n1 | -5.3 | 103.4 | 101.1 | 93.8
CSC1=N/C(=C/c2ccco2)C(=O)N1 | -23.0 | 105.1 | 113.9 | 94.2
O=C(O)c1ccc(N2CCCS2(=O)=O)cc1 | / | 103.2 | 86.0 | 91.0
COc1ccc2nc(SCc3ccc([N+](=O)[O-])cc3)nc(C)c2c1 | -1.6 | 105.1 | / | /
Cc1[nH]n(-c2ccccc2)c(=O)c1C(=O)Nc1ccccc1 | -4.5 | / | 116.9 | 67.9
CCOC(=O)c1c(C)[nH]c(CCC(=O)Nc2ccccc2OCC)c1C | / | 104.9 | 84.8 | 87.5
CC(C)(C)C(=O)Nc1ccccc1C(=O)Nc1cccnc1 | 12.2 | 98.0 | 93.7 | 86.5
COc1ccc(-c2nnc(NC(=O)c3ccc(S(=O)(=O)N4CCC(C)CC4)cc3)o2)c(OC)c1 | / | 104.0 | 85.2 | 80.1
CC(N/C=C1/CCCCC1=O)C1CC2CCC1C2 (configuration not stated) | -33.8 | / | 108.3 | 80.9
C=CCn1c(SCC(=O)Nc2ccc(C)cc2C)nc2sc3c(c2c1=O)CCC3 | -7.0 | 92.6 | / | /
CC1SC(=S)NN1c1ccccc1 (configuration not stated) | -12.4 | / | 42.2 | 24.6
O=C(c1ccccc1-c1nc(-c2ccccc2)no1)N1CCN(c2ccc(Cl)cc2)CC1 | -8.7 | 95.8 | / | /
O=C(NCc1ccc(F)cc1)C1(c2cccs2)CCOCC1 | / | 105.2 | 104.8 | 99.5
S=c1nc(SCCOc2ccccc2)[nH]c2ccccc12 | -11.3 | / | 85.8 | 82.6
COc1ccc(C(=O)CSc2ccc3nnc(-c4ccccn4)n3n2)cc1 | -0.2 | 103.0 | 106.8 | 91.5
O=C(O)c1c(-c2ccccc2)c(-c2ccccc2)n[nH]c1=O | -17.8 | 98.1 | 81.6 | 100.4
Cc1ccc(/C=C2\SC(=S)N(CCC(=O)OCCN(C)C)C2=O)cc1 | -75.8 | 101.8 | / | /
COc1cc(C(=O)NCC(c2ccc3c(c2)OCO3)N2CCN(C)CC2)cc(OC)c1OC (configuration not stated) | / | 104.3 | 116.3 | 96.5
Cc1nn(CCCC(=O)NCc2ccccc2)c(=O)c2nn(-c3ccccc3)c(C)c12 | / | 102.9 | 94.3 | 93.2

Next part:
SMILES | HCMV NEC inh | GIV Gai3 FP | Sa growth inh | Sa growth inh second temp
CCN(CC)C(=S)Oc1ccc(Cl)cc1Cl | -3.5 | 103.4 | 122.7 | 73.5
COC(=O)c1nnn(CC(=O)Nc2cc(F)ccc2F)c1C(=O)OC | 4.8 | 99.7 | 100.4 | 99.0
CCn1c(SCC(=O)c2cc(C)n(-c3ncn[nH]3)c2C)nc2cc(S(N)(=O)=O)ccc21 | -7.4 | / | 72.8 | 82.5
COC(=O)C(C)Sc1nc2c(cnn2-c2ccccc2)c(=O)[nH]1 (configuration not stated) | -1.0 | 103.7 | 100.7 | 96.1
COCCNC(=O)CCCn1c(SCC(=O)c2ccc(Br)cc2)nc2c(sc3ccccc32)c1=O | -43.4 | 95.5 | 111.0 | 86.1
Cc1ccc2cc3cc(C(=O)N4CCN(c5cccc(C(F)(F)F)c5)CC4)sc3nc2c1 | -12.2 | 100.7 | 117.9 | 85.4
CC1CCCCN1CC(O)COCc1ccccc1 (configuration not stated) | -10.4 | / | 93.2 | 86.7
Cc1ccc2[nH]c(CSc3nnc(NC(=O)COc4ccccc4C)s3)cc(=O)c2c1 | / | 105.9 | 108.1 | 96.5
CC1CCN(C(=O)c2cccc(Cl)c2)CC1 | -19.6 | 93.1 | 82.7 | 97.6
Cn1c(=O)c2c(nc(NCc3ccco3)n2Cc2ccccc2Br)n(C)c1=O | -24.2 | 102.1 | / | /
O=C(O)COc1ccccc1/C=c1\sc2nc3ccccc3n2c1=O | -49.4 | 93.6 | 93.6 | 93.6
COCCN1Cc2cccc(C(=O)Nc3ccc(C)c(F)c3)c2C1=O | -16.0 | 98.2 | 105.8 | 91.7
CCCCc1nn2c(=O)cc(CN(CC)c3ccccc3)nc2s1 | / | 98.7 | 64.7 | 81.2
O=S1(=O)CCC(N2CCN(c3nc(C(F)(F)F)nc4ccccc34)CC2)C1 (configuration not stated) | -17.6 | / | 86.4 | 88.3
COc1ccc(-c2nc3c4ccccc4ccn3c2C(C)=O)cc1 | -14.2 | 102.1 | / | /

Profiles, quoted from the list. Order of values: HCMV NEC inh | GIV Gai3 FP | Sa growth inh | Sa growth inh second temp
Results for `COCCNC(=O)CCCn1c(SCC(=O)c2ccc(Br)cc2)nc2c(sc3ccccc32)c1=O` = -43.4 | 95.5 | 111.0 | 86.1
Results for `COC(=O)C(C)Sc1nc2c(cnn2-c2ccccc2)c(=O)[nH]1` (configuration not stated) = -1.0 | 103.7 | 100.7 | 96.1

Molecules from the list above that contain a furan ring, fused or not (3):
SMILES | HCMV NEC inh | GIV Gai3 FP | Sa growth inh | Sa growth inh second temp
O=C(CSc1nc(-c2ccco2)nc2cc(=O)[nH]n12)Nc1ccccc1F | / | 95.8 | 68.8 | 76.5
CSC1=N/C(=C/c2ccco2)C(=O)N1 | -23.0 | 105.1 | 113.9 | 94.2
Cn1c(=O)c2c(nc(NCc3ccco3)n2Cc2ccccc2Br)n(C)c1=O | -24.2 | 102.1 | / | /

Continued.
SMILES | HCMV NEC inh | GIV Gai3 FP | Sa growth inh | Sa growth inh second temp
CCOC(=O)c1cccc(NC(=O)n2ncc3c(C)cccc32)c1 | -22.6 | 98.8 | 77.0 | 75.9
Cc1ccc(NC(=O)NCC2CCN(Cc3cccc(Cl)c3)CC2)cc1Cl | -3.6&6.8 | 101.0&102.4 | 106.2 | 90.9
Nc1cc(N)nc(SCc2ccccc2)n1 | -21.2 | / | 84.9 | 81.4
N#CCSc1nsc2sc(C#N)c(N)c12 | -63.2 | 96.4 | 99.6 | 79.7
Oc1c(CN2CCCCC2)ccc2cccnc12 | -72.9 | / | 59.4 | 47.0
Cc1ccc(S(=O)(=O)CCc2nnc(NC(=O)CSc3ccc(Cl)cc3)s2)cc1 | -10.7 | 105.2 | / | /
Cc1ccc(S(=O)(=O)N(/C=C2\Sc3ccccc3C2=O)c2ccc([N+](=O)[O-])cc2)cc1 | -19.9 | 100.8 | / | /
CCN(Cc1ccccc1)c1ccc(NS(C)(=O)=O)cc1C(=O)O | 0.9 | 102.0 | / | /
CCOc1ccc2oc(C(=O)OC3CCCC3=O)c(C)c2c1 (configuration not stated) | -22.7 | / | 84.7 | 90.1
COc1ccc(OC)c(S(=O)(=O)N2CCN(Cc3nc4cccnc4n3-c3ccc(C)cc3)CC2)c1 | -8.6 | 113.4 | / | /
N#CCCN(Cc1cccnc1)C(=O)Nc1ccccc1 | -17.5 | / | 111.9 | 89.0
CCOC(=O)c1ccc(Nc2nnc(-c3cc4c(ccc5ccccc54)oc3=O)s2)cc1 | -8.1 | 106.0 | / | /
COc1ccc(OC)c(Nc2ncnc3c2cnn3-c2cccc(Cl)c2)c1 | / | 102.7 | 141.0 | 104.1
Cc1ccc(S(=O)(=O)N2CCC3(CC2)OCCO3)cc1 | -15.8 | 105.5 | 100.9 | 105.1
Cc1ccc(-n2nc(C)c3c(C)cc(C(=O)O)nc32)cc1C | / | 107.6 | 78.8 | 84.3

No new results follow: two of the compounds above.
SMILES | HCMV NEC inh | GIV Gai3 FP | Sa growth inh | Sa growth inh second temp
Cc1ccc(S(=O)(=O)N2CCC3(CC2)OCCO3)cc1 | -15.8 | 105.5 | 100.9 | 105.1
Cc1ccc(-n2nc(C)c3c(C)cc(C(=O)O)nc32)cc1C | / | 107.6 | 78.8 | 84.3

Outcome played no part in choosing rows (roughly 0.8% active in at least one column).
